From PubChem
HNF4A DNA FP – change in binding of human HNF4A to DNA, primary screen, biochemical, fluorescence polarization, FITC-DNA; 360,000 tested, 0.3% active; activity change, % at 10 µM; AID 1224865, 2016; 1 h; Hepatocyte nuclear factor 4-alpha (Homo sapiens), P41235; in the data active = activity change above about 30%, passing the limit was not always enough;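 also: controls were the assay level and a saturating level of protein; the project sought stronger binding though the title names inhibitors; some compounds called inactive have numbers as strong as hits; positive values seem to mean higher polarization but the record does not say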
Target sequence (P41235 whole entry, looked up): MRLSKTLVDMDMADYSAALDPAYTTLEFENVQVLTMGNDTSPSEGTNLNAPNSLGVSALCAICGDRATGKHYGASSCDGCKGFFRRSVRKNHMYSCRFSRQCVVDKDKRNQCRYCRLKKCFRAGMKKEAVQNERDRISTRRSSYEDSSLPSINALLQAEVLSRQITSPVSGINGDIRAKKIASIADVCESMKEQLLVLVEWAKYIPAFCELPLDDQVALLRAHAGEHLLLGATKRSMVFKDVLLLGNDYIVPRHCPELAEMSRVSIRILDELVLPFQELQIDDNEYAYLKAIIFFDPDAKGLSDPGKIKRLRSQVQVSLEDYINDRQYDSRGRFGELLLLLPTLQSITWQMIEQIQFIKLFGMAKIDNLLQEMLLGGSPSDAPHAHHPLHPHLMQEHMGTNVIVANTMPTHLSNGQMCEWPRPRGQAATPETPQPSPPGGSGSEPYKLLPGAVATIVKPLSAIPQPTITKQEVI
Calb FLC – C. albicans growth inhibition with fluconazole, primary screen, CaCi-2 strain, Alamar Blue fluorescence; C. albicans CaCi-2 (fluconazole-resistant clinical isolate) + fluconazole, 48 h; growth inhibition, % (concentration not given with the values); 300,000 tested, 0.57% active;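 active = most replicates above 75%; inconclusive = exactly half above 75%; inactive = most below 75%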;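 also: all wells also contain fluconazole at 8 µg/ml as a sub-toxic cotreatment; 0% = median of DMSO wells and 100% = median of geldanamycin control wells; wells of about 8 µL received 7.5 nL stock; the first replicate is given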
B2AR ag – beta2AR agonists driving receptor internalization, primary screen, cell-based, FAP fluorogen, flow cytometry; Beta-2 adrenergic receptor (Homo sapiens), P07550; Am2.2-beta2AR cells; reference of the scale not given here; response, % (no concentration beside the values); 340,000 tested, 0.43% active; AID 504454, 2011;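 active = response above a set limit, near 3 SD of response in nonfluorescent compounds, cut at about 42% in these data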;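 also: stock transfer was 100 nL into about 11 µL; a reference agonist was the positive control; negative values mostly stem from fluorescent compounds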
ALR H2O2 inh – inhibitors of human ALR sulfhydryl oxidase, primary screen, biochemical, H2O2 detection, HRP-luminol luminescence, single point | FAD-linked sulfhydryl oxidase ALR (Homo sapiens), P55789 | AID 485317, 2010 | inhibition, % (test concentration not listed) | 290,000 tested, 3.8% active | purified ALR, DTT oxidation;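 active = mean and each replicate at 75% or more; inconclusive = only one of the two met; inactive = neither met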;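 also: stock transfer was 7.5 nL into about 7.5 µL; 0% = neutral wells and 100% = wells with inactivated enzyme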
Target sequence (P55789 whole entry, looked up): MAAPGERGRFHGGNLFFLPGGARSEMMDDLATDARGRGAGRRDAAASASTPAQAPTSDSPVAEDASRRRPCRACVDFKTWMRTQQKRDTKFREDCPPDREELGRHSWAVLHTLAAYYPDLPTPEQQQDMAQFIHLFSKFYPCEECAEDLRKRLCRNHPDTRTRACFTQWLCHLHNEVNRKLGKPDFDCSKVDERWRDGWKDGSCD
LANA-H2A inh – blockers of LANA interaction with H2A/H2B – biochemical, FP readout, HTS, primary screen | inhibition, % (concentration not given with the values) | 320,000 tested, 0.6% active | cell-free LANA-H2A/H2B peptide, fluorescence polarization | Protein LANA1 (Human herpesvirus 8 type P (isolate GK18)), Q9QR71 | AID 2629, 2010; in the data active = inhibition mostly above about 10%, no sharp cut-off; inactive = mostly below about 6.7%;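 also: stock transfer was 7.5 nL into about 10 µL; 0% = median of vehicle wells and 100% = median of positive control wells; one replicate is shown; the record names a cut of 25% in any replicate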
RanGTP-Imp inh – inhibitors of RanGTP-importin-beta interaction, primary screen, biochemical, FRET, CFP-Ran, YFP-importin-beta, homogeneous. Ran GTPase (GTP-bound) - importin-beta complex. 300,000 tested, 1.1% active. AID 2216, 2009. cell-free CFP-Ran/YFP-importin-beta FRET ratio. inhibition, % (no concentration beside the values);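 active = most replicates above 15%; inconclusive = exactly half above 15%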;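 also: 0% = DMSO wells and 100% = Ran loaded with GDP instead of GTP; wells of about 40 µL received 100 nL stock; the first replicate is given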
Vif A3G – inhibitors of Vif binding to APOBEC3G peptide, primary screen, biochemical, TR-FRET, GST-Vif 1-94, biotin-A3G peptide, dose response retest (AID 1117319); Virion infectivity factor (Human immunodeficiency virus type 1 group M subtype B (isolate …; TR-FRET GST-Vif / biotin-A3G peptide binding; higher % means a stronger effect; test concentration not given here; strong numbers were not always called active; inhibition, %, or IC50 in µM where a hit was titrated; 260,000 tested, 0.57% active;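 active = above the screen mean plus three standard deviations and confirmed in dose response; inconclusive = results disagree or hit not tested in dose response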;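 also: Vif residues 1-94 fused to GST binding biotinylated APOBEC3G peptide 110-148; 0% = full assay without inhibitor and 100% = GST in place of GST-Vif; retest series ran down from 100 µM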
Numbers without * were called inactive; ? = inconclusive; · = no result given.

Structure	Calb FLC	Vif A3G	ALR H2O2 inh	RanGTP-Imp inh	HNF4A DNA FP	LANA-H2A inh	B2AR ag
COc1cccc(=O)c2c(C)n(-c3cc(C)cc(C)c3)c(C)c12	-15.9	21.8%	-1.1	-16.6	3.9	5.0	-3.5
Cc1ccc(S(=O)(=O)N(C)C)cc1NC(=O)c1ccc(OC(F)(F)F)cc1	-6.9	10.6%	3.0	?	0.2	-2.2	-1.0
O=C1c2ccccc2C(=O)C12OC(c1ccccc1)C1(C(=O)c3ccccc3C1=O)C2c1cccc([N+](=O)[O-])c1 (stereo not given)	0.3	-3.7%	·	4.5	·	·	·
CCN(C(=O)CCCCC(=O)N(CC)c1ccccc1)c1ccccc1	7.9	·	-5.4	1.6	2.4	0.3	-1.3
CC(Sc1nnc(Cc2ccc([N+](=O)[O-])cc2)o1)C(N)=O (stereo not given)	9.5	2.0%	-15.0	-2.0	-0.6	1.7	11.4
COc1ccc(CCNc2nc(-c3sc(N)nc3C)cs2)cc1OC	4.6	27.8%	-27.9	-2.0	6.8	-1.0	12.0
O=C(COc1ccc(F)c(Cl)c1)c1ccc[nH]1	-0.4	24.2%	-2.1	-4.0	3.5	-2.6	-0.5
COc1ccc(S(=O)(=O)N(CC(=O)NCc2cccnc2)Cc2ccccc2)cc1	-12.3	2.1%	-1.0	5.2	-1.6	1.4	0.0
CCCC(=O)Nc1c(-c2ccccc2Cl)c(=O)c2ccccc2n1C	-5.1	-3.2%	-1.7	2.0	-0.1	0.2	-2.3
CCN(CC)CCNC(=O)c1cn(CC)c2ccc(S(=O)(=O)N(C)C)cc2c1=O	-5.9	-0.8%	·	1.8	4.9	-0.5	0.3
C[C@@H](NC(=O)c1[nH]cnc1C(=O)Nc1cccc(Cl)c1)c1ccccc1	·	·	-18.5	·	-0.6	3.9	1.3
O=C(CN1CCSC1=O)N1CCN(S(=O)(=O)c2ccc(F)cc2)CC1	·	-2.1%	·	·	3.2	·	-10.4
CCOC(=O)c1ccc(Oc2nc(NC)nc(SC)n2)cc1	49.2	0.5%	-8.3	-3.1	1.3	2.7	·
O=C(COC(=O)/C=C/c1ccc(S(=O)(=O)N2CCOCC2)cc1)NCc1ccc(Cl)cc1	2.5	3.4%	0.0	-1.0	-4.6	0.3	5.7
O=C1CC(NS(=O)(=O)c2cccnc2)CN1c1ccc(Cl)cc1 (stereo not given)	6.4	-9.4%	·	?	0.6	0.4	8.5
S=C(Nc1cccc(Cl)c1Cl)N1CCC2(CC1)OCCO2	12.9	·	-7.7	-1.9	-0.9	1.3	3.8
O=C(COc1ccc([N+](=O)[O-])cc1Cl)N(C1CCCCC1)C1CCS(=O)(=O)C1 (stereo not given)	·	3.0%	·	·	-1.2	·	16.5
O=C(Cc1cccc2ccccc12)NCC(=O)N1CCN(Cc2cccc(C(F)(F)F)c2)CC1	·	4.2%	·	·	3.1	-5.5	7.7
CCCn1nnc(NC(=S)NC(=O)c2ccccc2OC)n1	·	·	·	·	-2.2	-3.2	-8.9
COC(=O)c1ccc(Oc2c(C)oc3cc(OCc4cnn(-c5ccccc5)c4)ccc3c2=O)cc1	1.4	-4.2%	-1.5	0.9	-4.6	-7.5	-0.6
CCCCS(=O)(=O)N1CCC(C(=O)NCC2CCCO2)CC1 (stereo not given)	3.0	·	-0.8	6.3	-0.1	-6.7	4.7
CCCCCC(=O)Nc1nc(C)c(-c2csc(Nc3ccccc3OC)n2)s1	-10.2	-4.5%	13.3	-2.4	6.1	-1.2	15.1
O=C(CCN1C(=O)c2ccccc2C1=O)Nc1ccc(S(=O)(=O)N2CCOCC2)cc1	-21.1	4.0%	-14.9	2.0	-1.0	2.9	-11.3
CSc1nc(C2CC2)cc(-c2cccs2)c1C#N	2.9	-50.7%	-4.9	0.0	0.2	-8.5	30.3
CC(C)(C)c1ccc(/C=C2\Oc3cc(OC(=O)N4CCOCC4)ccc3C2=O)cc1	-18.5	2.8%	3.5	-1.0	0.0	-0.1	1.7
O=C1NC(=Nc2ccccc2Br)SC1(CO)CO	1.4	0.4%	-1.3	0.5	-0.6	1.0	-8.6
COc1ccc(NC(=O)c2cc(-c3ccco3)nc3ccccc23)cn1	·	·	·	·	-9.6	0.1	8.6
Cc1cc(NC(=O)c2cc(-c3ccncc3)nc3ccccc23)ccc1Br	·	-5.8%	-4.0	·	4.8	0.3	17.8
Cc1cccc(OCC(=O)OCC(=O)Nc2sccc2C(N)=O)c1	·	·	8.1	·	-0.5	1.6	-2.3
Nc1ccc(S(=O)(=O)Nc2ccnn2-c2ccccc2)cc1	·	2.5%	-7.9	-5.9	1.8	-0.2	5.4
CCCCC1CCC(/C(N)=N/O)CC1 (stereo not given)	20.8	-2.5%	-8.9	0.2	0.3	-1.2	-1.9
COc1cccc(CNC(=O)c2n[nH]c3ccccc23)c1	10.2	-7.3%	-4.4	-0.1	1.0	-3.0	0.4
COc1ccc(OC)c(NC(=O)CN(C)S(=O)(=O)c2ccc(Cl)cc2)c1	-3.5	-1.9%	-2.8	1.9	-1.5	-1.1	-5.7
COc1ccc(OC)c(NC(=O)Cc2coc3ccc(C)cc23)c1	-1.3	1.6%	-3.4	-2.5	-4.1	-3.6	-6.2
COc1ccc(C(=O)N2CCC(CCC(=O)Nc3cccc(C)c3)CC2)cc1	5.2	·	-2.4	5.2	1.2	1.5	11.0
CCOCCCn1c(SC(C)C(=O)NCC2CCCO2)nc2sc(C)c(C)c2c1=O (stereo not given)	·	-3.6%	1.5	·	0.4	-2.7	-5.2
CCCNC(=O)c1cc(Cl)c(NC(=O)C2=CSCCO2)cc1OC	1.6	·	3.9	1.5	0.6	0.7	-16.4
CCOP(=O)(OCC)/C(=C/N1CCCCC1)NC(=O)c1ccccc1	-0.3	5.2%	-0.3	3.9	-2.6	2.6	-2.4
O=C(c1nc2ccccn2c1CNCCn1ccc2ccccc21)N1CCOCC1	2.0	-2.2%	-9.4	-1.1	-0.4	-6.1	-1.1
O=C(O)CCn1c2c(c3ccccc31)CCCC2	-8.1	5.3%	99.1*	-1.8	-5.0	6.7	-0.5
Cc1ccc(S(=O)(=O)N2CCOCC2)cc1C(=O)N1CCN(c2ccc(C(F)(F)F)cn2)CC1	·	-3.5%	-61.8	·	-0.5	4.3	4.4
S=C(NCCc1ccccc1)NCc1cccs1	-15.7	0.0%	4.7	1.1	-2.2	-7.4	-4.3
O=C(Nc1ccccc1-c1ccccc1)c1cccs1	8.2	1.2%	1.6	22.1*	1.6	2.3	15.4
COC(=O)c1ccccc1-n1c(C)nc(=O)c(-c2ccccc2)c1C	-0.2	·	-19.4	-1.6	0.1	3.3	1.2
Cc1ccc2oc(-c3ccccc3)nc2c1	2.4	1.1%	·	5.5	-6.2	-2.4	-7.5
COc1ccc(OC)c(/C=C/C(=O)OCC(=O)NC2CCCCCCC2)c1	·	-1.2%	-0.7	·	-2.0	-3.8	3.4
O=S1(=O)CCC(NS(=O)(=O)c2ccc3ccccc3c2)C1 (stereo not given)	13.4	·	·	0.5	-1.4	3.2	2.1
Cc1occc1-c1nnc(SCC(=O)N2CCOCC2)o1	-7.6	29.0%	-5.7	-5.9	-0.1	1.9	-8.2
COc1ccc(C(=O)/C=C/c2ccccc2C(F)(F)F)cc1	2.3	-2.1%	6.1	0.5	-0.1	5.3	-3.3
O=C(N/N=C/c1cccnc1)c1ccc(Cl)c(Cl)c1	-3.0	·	-4.9	2.4	1.5	1.9	-9.3
CC(c1ccccc1)N1CC(C(=O)Nc2ccc(F)cc2)CC1=O (stereo not given)	·	-8.7%	-10.4	·	0.4	1.3	-7.0
COc1cc(C(=O)OCC(=O)c2ccccc2)cc2c1OCCO2	·	7.4%	2.1	·	-3.8	-4.6	5.6
CCc1ccc(CN(C(=O)c2oc3ccccc3c2C)C2CCS(=O)(=O)C2)cc1 (stereo not given)	9.4	·	-5.7	-2.4	1.8	-3.5	-13.8
CC(C)[C@@H](C(=O)NC1CCN(Cc2ccccc2)CC1)N1C(=O)N2CCc3c([nH]c4ccccc34)[C@@]2(C)C1=O	-4.1	·	·	?	1.7	-1.6	15.9
CCCCOc1ccc(NC(=O)Nc2nnc(C)s2)cc1	53.8	-1.5%	-5.4	0.7	0.1	-2.7	-1.8
CC1CN(CCCCOc2ccc(F)cc2)CC(C)O1 (stereo not given)	9.8	-2.4%	-3.6	-0.8	6.3	3.1	7.0
CCCCC(=O)Nc1ccc2c(c1)oc1ccccc12	18.1	-11.6%	0.6	-2.2	2.4	1.1	6.2
COc1cc(OC)c(OC)cc1/C=N/n1c(C)nnc1C	-22.1	4.5%	-6.7	-0.6	1.1	-3.0	-3.0
O=C(CNc1cccc2ccccc12)N/N=C/C(Br)=C/c1ccccc1	-10.7	6.3%	-10.3	1.7	-2.0	4.4	1.9
CC1CC2C3CCC4=CC(=O)CCC4(C)C3CCC2(C)C1(O)C(=O)CO (stereo not given)	·	-1.7%	·	·	2.3	·	-1.3

The list continues:
Structure	Calb FLC	Vif A3G	ALR H2O2 inh	RanGTP-Imp inh	HNF4A DNA FP	LANA-H2A inh	B2AR ag
C[C@]12C=CC(=O)C=C1CCC1C3CC[C@](O)(C(=O)CO)[C@@]3(C)CC3OC312 (stereo not given in full)	6.4	-0.1%	-2.9	-1.4	1.6	0.7	5.9
C=CCN=Cc1sc2ccc(OCC)cc2c1O	-20.4	10.6%	0.7	-0.7	·	-0.1	·
CN(c1ccccc1C(=O)Nc1ccc(F)c(Cl)c1)S(C)(=O)=O	6.6	5.6%	-5.7	-3.0	2.0	6.6	3.0
Cc1ccccc1OCCNc1cc(N2CCCCC2)ccc1[N+](=O)[O-]	-63.1	-5.1%	-3.3	-2.3	0.3	3.8	4.0
COc1ccn(C2CCCCO2)c(=O)n1 (stereo not given)	·	-0.1%	·	·	-3.3	·	-4.2
N#Cc1ccccc1S(=O)(=O)N1CCN(C(=O)CCc2ccccc2)CC1	·	·	·	·	6.2	0.3	-0.5
O=C(NN1C(=O)C2C3C=CC(C3)C2C1=O)c1ccncc1 (stereo not given)	-6.2	16.9%	-1.2	1.9	2.1	5.0	2.2
